Compound activity: PubChem BioAssay, National Center for Advancing Translational Sciences (NCATS)
miR-21 reporter = miR-21 reporter, rising signal | HeLa miR-21 FLuc reporter, luciferase, 48 h | 340,000 tested, under 10 active | Potency, µM (top dose mostly 38.3 µM), for the others: at the top dose reporter change, positive = more light; active = well fitted rising curve with a large enough effect; inconclusive = small, poorly fitted or top-dose-only effect; inactive = no such curve, though single readings can be large or run the other way;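 also: % of control where 0% means no effect; miR-21 action dims this reporter so a rising signal means less miR-21 action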
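Using DMEM plus 10% FBS, HeLa miR-21-FLuc cells are incubated with test compounds (final up to about 40uM) for 48 hours; firefly luciferase signal is then imaged following reagent-mediated lysis.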
The depositor's hits bear a star; ? = inconclusive; [ ] = remark or other dose. Some of the compounds tested; count on the stated rates, not on these rows.

SMILES	miR-21 reporter
Cc1cccn2c(=O)c(/C=C(\C#N)c3nc4ccccc4n3C)c(Oc3ccc(Cl)cc3)nc12	-6.7%
CC(C)(C)OC(=O)N1CCC(c2c(C(=O)NCCc3ccsc3)cnn2-c2ccccc2Cl)CC1	22.0%
Cc1cc2nc(-c3ccc(NC(=O)c4ccc(OCC(C)C)cc4)cc3)oc2cc1C	-6.2%
CCc1ccc(NC(=O)CN2C(=O)C(c3ccccc3)=NC23CCCCCC3)cc1	19.1%
CCOc1ccc(CNC(=O)Cn2c(=O)c3cccn3c3cccnc32)cc1	-17.0%
CCOCCCNC(=O)c1c(NC(=O)c2nc(SC)ncc2Cl)sc2c1CCCC2	-6.3%
CCc1ccc(S(=O)(=O)Nc2ccc(-c3ccc(N4CCCC4)nn3)cc2)cc1	-6.8%
Cc1cccc(NC(=O)Cn2c(=O)n(CC3CCC(C(=O)NCCc4ccccc4)CC3)c(=O)c3ccccc32)c1 (centres undefined)	-1.5%
COc1ccc(-c2cc3nc(C)c(CCC(=O)N4CCN(c5cccc(Cl)c5)CC4)c(C)n3n2)c(OC)c1	20.7%
COc1cc(CNC(=O)c2cc(-c3ccccc3)n[nH]2)cc(OC)c1OC	-1.6%
Cc1ccccc1NC(=O)c1cccc2c(=O)c3c([nH]c12)CCCC3	-36.6%
CC(=O)c1ccc(S(=O)(=O)N2CCn3cccc3C2c2ccccc2F)cc1 (centres undefined)	-3.3%
Cc1cc(Nc2cc(Cl)ccc2C)n2nc(-c3ccccc3)nc2n1	-3.9%
O=C(NCc1ccc(F)cc1)C1CCCN(c2ncnc3onc(-c4ccc(F)cc4)c23)C1 (centres undefined)	1.7%
COc1ccccc1-c1nc2c3c(-c4ccccc4)c(-c4ccccc4)oc3ncn2n1	-4.6%
COc1ccc(CCn2c3c(c(=O)[nH]c2=O)C(NC(=O)c2ccccc2OC)(C(F)(F)F)C(=O)N3)cc1OC (centres undefined)	-1.2%
Cc1ccc(CCNC(=O)c2cc3cc4cc(C)ccc4nc3s2)cc1	-16.1%
CCOc1ccc2oc(=O)cc(CN3CCN(c4ccc(Cl)cc4)CC3)c2c1	3.5%
Cc1cc2ccccc2n1-c1ccc(C(=O)N2CCC(C(=O)NCc3ccc(F)cc3)CC2)s1	19.2%
CCCCSCCCNC(=O)c1cn(C)c2ccc(S(=O)(=O)N3CCCCC3)cc2c1=O	-1.9%

6 compounds out of the list, arranged by length of the SMILES, highest first.
SMILES	miR-21 reporter
Cc1cccc(NC(=O)Cn2c(=O)n(CC3CCC(C(=O)NCCc4ccccc4)CC3)c(=O)c3ccccc32)c1 (centres undefined)	-1.5%
COc1ccc(-c2cc3nc(C)c(CCC(=O)N4CCN(c5cccc(Cl)c5)CC4)c(C)n3n2)c(OC)c1	20.7%
Cc1cc2nc(-c3ccc(NC(=O)c4ccc(OCC(C)C)cc4)cc3)oc2cc1C	-6.2%
CC(=O)c1ccc(S(=O)(=O)N2CCn3cccc3C2c2ccccc2F)cc1 (centres undefined)	-3.3%
CCOc1ccc2oc(=O)cc(CN3CCN(c4ccc(Cl)cc4)CC3)c2c1	3.5%
Cc1ccc(CCNC(=O)c2cc3cc4cc(C)ccc4nc3s2)cc1	-16.1%

Remaining list, next part.
SMILES	miR-21 reporter
Cc1ccc(S(=O)(=O)C(CNC(=O)COc2ccccc2)c2ccco2)cc1 (centres undefined)	-0.5%
CSc1ncc(Cl)c(C(=O)NCc2ccc(C)cc2)n1	-1.1%
O=C(NCCc1ccc(F)cc1)C(=O)NCC(c1cccs1)S(=O)(=O)c1cccs1 (centres undefined)	29.2%
CSCCC(NS(=O)(=O)c1ccc2c(c1)oc(=O)n2C)C(=O)N1CCN(c2cc(Cl)ccc2C)CC1 (centres undefined)	9.9%
CCCN(CCC)C(=O)Cn1c(=O)n(Cc2ccc(C(=O)NCCc3ccc(Cl)cc3)cc2)c(=O)c2ccccc21	-1.9%
Cc1cccc(N2CCN(C(=O)c3cc(S(=O)(=O)N4CCC(C)CC4)cn3C)CC2)c1C	8.7%
CN(C)c1ccc(C(CNS(=O)(=O)c2ccc(F)cc2)N2CCOCC2)cc1 (centres undefined)	-3.2%
Cc1nnc(SCc2ccccc2Cl)c2cc3occc3n12	-64.5%
O=C(NCc1cccs1)c1ccc2c(=O)n3nc(Nc4ccccc4)sc3nc2c1	27.1%
Cc1ccc(OCC(=O)NCC(c2ccc(Cl)cc2)N2CCCCC2)cc1 (centres undefined)	11.4%
COc1ccc(OCc2nc3c4c(-c5ccc(OC)cc5)c(-c5ccc(OC)cc5)oc4ncn3n2)cc1	-1.4%
COc1ccccc1Nc1nn2c(=O)c3ccc(C(=O)NC4CCCCC4)cc3nc2s1	4.6%
CCOc1ccc(S(=O)(=O)Nc2cc3c(C(=O)OC)c(COC)oc3c3ccccc23)cc1	24.6%
COc1cc(CNC(=O)c2cnc(SC)nc2-c2ccccc2)cc(OC)c1OC	-0.2%
CCSc1nc(-c2cccc(Cl)c2)nc2c1Cc1c(CO)cnc(C)c1O2	-0.9%
Cc1cccc(NC(=O)c2c(C)oc3ncn(CC(C)C)c(=O)c23)n1	-5.8%
Cc1oc2ccc(O)c(CN3CCN(Cc4ccccc4)CC3)c2c1C(=O)Nc1ccccc1	7.3%
COc1ccc(CCNc2ncnc3onc(-c4ccc(Cl)cc4)c23)c(OC)c1	5.3%
CCOC(=O)c1cc(-c2ccccc2)n(CCCC(=O)Nc2ccc(CC)cc2)c1C	13.6%
COc1ccccc1Nc1c2c(nc3ccc(NC(=O)c4ccccc4F)cc13)CCCC2	?
Cc1ccc(C)n1-c1nnc(N2CCCC(C(=O)NCc3cccc(Br)c3)C2)s1 (centres undefined)	-8.9%
COc1ccc(-c2nc3ccccc3s2)cc1NC(=O)c1cc(OC)c(OC)c(OC)c1	-54.7%
CCOC(=O)c1[nH]c(C)c(CCC(=O)NCc2ccccc2)c1C	-0.6%
O=C(c1ccc2c(c1)CCN2S(=O)(=O)c1ccc(Cl)cc1)N1CCN(c2ccccc2F)CC1	9.8%
CCNC(=O)c1ccc(C)c(-n2c(C)nc3cccnc32)c1	-2.7%
Cc1ccc(C(=O)N(Cc2ccc(N(C)C)cc2)Cc2ccco2)cc1	-2.7%
NC(=O)CN1C(=O)C2(SCC(=O)N2c2cccc(F)c2)c2ccccc21 (centres undefined)	0.0%
CCCCc1ccc(NS(=O)(=O)c2cc3c4c(c2)CC(=O)N4CCC3)cc1	9.7%
COc1ccc(Nc2nc3ccccc3n3c(N)nnc23)cc1	-32.3%
CCc1ccc2oc(-c3ccc(C)c(NC(=O)Cc4ccccc4)c3)nc2c1	-10.6%
COc1ccccc1N1CCN(C(=O)CSc2nc3ccccc3nc2Cc2ccc(F)cc2)CC1	0.5%
CC(=O)OCc1cnc(C)c2oc(=O)c(C(=O)Nc3cccc(F)c3)cc12	-1.0%
CCOC(=O)c1noc2ncn(Cc3cccc(C#N)c3)c(=O)c12	-1.6%
CCc1ccccc1NS(=O)(=O)c1ccc2[nH]cc(C(=O)N(CC(C)C)CC(C)C)c(=O)c2c1	6.4%
CCOc1ccc(-n2c(SCC(=O)Nc3cccc(Cl)c3)nc3c(oc4ccccc43)c2=O)cc1	-14.7%
Cn1c(C(=O)NCc2cccc(Cl)c2)cc2oc3ccccc3c21	7.4%
CCOc1ccc(-n2c(SCc3nc(-c4ccc(OC)cc4)no3)nnc2-c2ccncc2)cc1	5.6%
Cc1ccc(CN(C(=O)COc2ccc(Cl)c(C)c2)C2CCS(=O)(=O)C2)o1 (centres undefined)	1.5%
CC(=O)N1CCc2c(sc(NC(=O)CSc3ccc(F)cc3)c2-c2nc3ccccc3s2)C1	-4.9%
CC(=O)Nc1ccc(C2Sc3ccccc3NC3=C2C(=O)c2ccccc23)cc1 (centres undefined)	-16.5%
CN1CCN(C(CNC(=O)C(=O)Nc2ccccc2)c2ccc3c(c2)OCO3)CC1 (centres undefined)	-7.8%
Cc1ccc(NC(=O)C2CCCN(c3ncnc4c3nc3n4CCCCC3)C2)cc1F (centres undefined)	23.2%
O=C(CSc1ncc(S(=O)(=O)c2ccc(Cl)cc2)c(=O)[nH]1)Nc1cccc(C(F)(F)F)c1	5.3%
O=C(Cn1cc(SCc2ccc(Br)cc2)c2ccccc21)N1CCCCC1	7.5%
CC(C)c1ccc(NC(=O)CS(=O)(=O)c2cccc3nsnc23)cc1	-9.9%
COc1ccc(NCc2nc3ccccc3n2CCOc2ccccc2C)cc1	-1.8%
Cc1ccc(S(=O)(=O)Nc2nc3n(n2)C(c2ccc(F)cc2)C=C(c2ccccc2)N3)cc1 (centres undefined)	1.6%
COc1ccc(-c2c(C)c3ccc(O)c(CN4CCCCC4)c3oc2=O)cc1OC	-4.7%
CCOc1ccccc1NC(=O)Cn1c2ncccc2c(=O)n1-c1ccc(C)c(C)c1	-1.8%
CC(=O)Nc1ccc(NC(=O)CN(C)S(=O)(=O)c2ccc3c(c2)CCCC(=O)N3)cc1	-0.9%

Further structures follow:
SMILES	miR-21 reporter
CSc1ccc(CCNC(=O)Cn2nc(C)n3c(cc4sccc43)c2=O)cc1	0.4%
Cc1ccc(S(=O)(=O)c2nnn3c2nc(NCc2ccc(F)cc2)c2sccc23)cc1	-6.3%
COc1ccccc1NC(=O)CC(C)n1nc(C)cc1C (centres undefined)	1.1%
Cc1cccc(CCNc2ncnc3onc(-c4ccc(Cl)cc4)c23)c1	13.2%
Cc1ccc(NC(=O)c2cc(S(=O)(=O)N3CCc4ccccc43)cn2C)c(Cl)c1	-0.3%
COc1ccc(OC)c(S(=O)(=O)NCC(c2cccs2)S(=O)(=O)c2ccc(F)cc2)c1 (centres undefined)	?
COC(=O)c1cc2oc3ccccc3c2n1Cc1nc(-c2cccc(C)c2)oc1C	-17.9%
CCN(c1ccccc1)c1nnc(NC(=O)Nc2cccc(Br)c2)s1	5.1%
Cc1ccc(CN2CCN(C3CCN(S(=O)(=O)c4ccc(C)cc4)CC3)C(=O)C2=O)cc1	-0.6%
COc1ccc(CNC(=O)c2nc(SCc3ccc(C)cc3)ncc2Cl)cc1	4.7%

Of the compounds above, three have bromine.
SMILES	miR-21 reporter
Cc1ccc(C)n1-c1nnc(N2CCCC(C(=O)NCc3cccc(Br)c3)C2)s1 (centres undefined)	-8.9%
O=C(Cn1cc(SCc2ccc(Br)cc2)c2ccccc21)N1CCCCC1	7.5%
CCN(c1ccccc1)c1nnc(NC(=O)Nc2cccc(Br)c2)s1	5.1%

Additional entries follow.
SMILES	miR-21 reporter
Cn1c(=O)c2c([nH]c(=O)n2Cc2ccc(Cl)cc2Cl)n(C)c1=O	-3.4%
Cc1noc(/C=C/c2cccs2)c1S(=O)(=O)N1CCC(C(=O)NCc2ccc(Cl)cc2)CC1	-2.1%
Cc1ccc(NC(=O)c2cc(CN3CCOCC3)on2)cc1Cl	-40.2%
COc1ccc(NC(=O)c2cc(C)nc3c2c(C)nn3-c2ccc(C)cc2)cc1OC	-1.6%
CCc1nn2c(=O)cc(COC(=O)c3ccccc3NC(=O)COc3ccccc3C)nc2s1	-18.3%
CCCN(c1c(C)n(C)n(-c2ccccc2)c1=O)S(=O)(=O)c1ccc(C)cc1	4.3%
O=C(c1cc2ccccc2oc1=O)N(Cc1cccc(Cl)c1)C1CCS(=O)(=O)C1 (centres undefined)	-13.7%
COc1ccc(CNC(=O)c2c3c(nc4ccccc24)C(=O)N(C2CCCCC2)C3)c(OC)c1	25.7%
CCN1c2ccccc2-n2cccc2C12CCN(C(=O)Nc1ccccc1C(F)(F)F)CC2	-2.0%
CCOCCCNC(=O)c1cc(=O)[nH]c2ccc(S(=O)(=O)N3CCCC3)cc12	-3.9%
CCCC[C@]12Cc3cc(C#N)ccc3C(O1)c1c(c3ccccc3oc1=O)O2	-0.3%[7.66 µM]
Cc1ccc(NC(=O)CN2C(=O)CCc3cc(S(=O)(=O)N4CCOCC4)ccc32)cc1F	-5.3%
O=C(CCn1c(=O)c2cccn2c2cccnc21)N1CCN(c2cccc(C(F)(F)F)c2)CC1	?
CCOC(=O)c1cc(-c2ccc(OC)cc2)n(CCC(=O)Nc2ccccc2OC)c1C	-2.4%
O=C(NCc1ccc(Cl)cc1)NCc1noc2ccccc12	-50.6%
CCc1ccc(C2CC(=O)Nc3c2c(=O)n(C)c2ncnn32)cc1 (centres undefined)	-8.9%
Fc1ccc(Nc2nc(Nc3ccc(F)cc3)nc(N3CCOCC3)n2)cc1	-9.2%
CCOc1ccccc1C(=O)Nc1cc(-c2ccc(C)cc2)no1	-11.0%
O=C(Nc1ccc2nc(SCC(=O)N3CCCc4ccccc43)sc2c1)c1ccccc1F	23.0%
COc1ccccc1NC(=O)c1ccc(-c2nc(COc3ccc(C)cc3)c(C)o2)cc1	20.8%
Cc1cccc(C)c1NC(=O)CSc1nc(-c2cccs2)cc(C(F)(F)F)n1	-1.0%
O=C(CCS(=O)(=O)c1ccc(Br)cc1)Nc1ccc(F)cc1F	-2.3%
COc1ccc(C2NC(=O)N(C)C3=C2C(=O)N(c2ccccc2)C3)cc1 (centres undefined)	-7.2%
COc1ccc(CNC(=O)c2ccc(N3CCCC3)c(NC(=O)NCc3ccc(F)cc3)c2)cc1	-3.4%
CCOc1ccccc1NC(=O)N1CCc2c(sc(C)c2CC)C1c1ccccc1 (centres undefined)	9.4%
Cc1c(Cl)cccc1NC(=O)Nc1c[nH]c(=O)[nH]c1=O	8.5%
COC(=O)c1ccccc1NC(=O)Cn1c(=O)cc(C)c2c(C)nn(-c3cccc(Cl)c3C)c21	-1.6%
CCCCN(Cc1ccccc1)S(=O)(=O)c1ccc2c(c1)CC(C)N2C(=O)CC (centres undefined)	-0.6%
Cc1ccc(S(=O)(=O)c2nc(-c3cccs3)oc2SCc2ccc(F)cc2)cc1	15.4%
Cc1c(C(=O)NCc2ccc(F)cc2)sc2nc(-c3ccccc3)cn12	9.6%
COC(=O)c1c(NC(=O)c2cc(=O)c3ccc(C)c(C)c3o2)sc2c1CCCC2	-2.6%
CCCCn1c(=N)n(CCOc2ccccc2OC)c2ccccc21	?
O=C(Cn1c(=O)c2ccccc2n(CC(=O)Nc2ccccc2F)c1=O)NCCc1ccccc1	0.7%
CC(C)(C)c1cc(C(C)(C)C)c2oc(=O)c(-c3nc4ccccc4[nH]3)cc2c1	8.6%
Cc1ccc(Cn2c(-c3ccccc3)nc3ccccc32)cc1	-0.5%
